High-throughput results deposited in PubChem BioAssay by Fisher Drug Discovery Resource Center.
NPYLR7 agonist – activates Aedes aegypti NPYLR7 receptor. AID 1259423. HEK293T NPYLR7/Galpha15, GCaMP6s calcium fluorescence. actives 0.15% (n = 270,000). activation, % at 10 µM; in the data active = activation above about 40%;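 note: 0% = vehicle and 100% = reference agonist at the receptor; some compounds past the cut are filed as inactive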
NPYLR7 agonist max-min – further read-out of NPYLR7 agonist, marked with its call; activation, %; measured here: Max-Min RFU normalised activation; some inactives read as strong as hits;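 span of the calcium signal over five minutes; 0% = vehicle and 100% = native peptide agonist; compound fluorescence can raise it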
* marks the source's active call; other numbers are inactive results; & = joins results of further samples.

SMILES	NPYLR7 agonist	NPYLR7 agonist max-min
CCCNC(=O)N(Cc1nccn1Cc1ccccc1C(F)(F)F)CC1CCCO1 (stereo not given)	8	17
CCN(Cc1nccn1C)C(=O)c1ccc(-c2cccc3ncccc23)nc1	7	2
COC(=O)NNC(=O)Cc1coc2ccc3ccccc3c12	-15	-14
Cc1[nH]n(-c2nc(-c3ccc(Cl)cc3)cs2)c(=O)c1N=Nc1ccccc1C(=O)N1CCOCC1	-4	-9
COCC(=O)N1CCN(c2ccccc2Cl)C(=O)C1C (stereo not given)	-8	-4
NCCc1ccn[nH]1	2&-4	4&-7
Cc1ccccc1C1=NOC(C(=O)NCCC(=O)NCC2CCCO2)C1 (stereo not given)	37	34
Nc1cccc2c(Oc3ccc([N+](=O)[O-])cc3)cccc12	-1	-2
COc1ccc(NC(=O)N2CCN(C(C(=O)N3CCOCC3)C3CCCC3)CC2)cc1 (stereo not given)	-9	-5
CC(C)N(CCNC(=O)c1n[nH]c2ccc(I)cc12)C(C)C	-1	-7
COc1ccc(CCNC(=O)c2cc(-c3ccccc3)n3nc(C(C)(C)C)cc3n2)cc1OC	21	16
CCc1cc2c(=O)n(Cc3ccco3)c(SCC(=O)c3cccs3)nc2s1	1	1
O=c1c(Br)c(NCc2ccco2)cnn1-c1ccccc1	1	1
CN(C)C(=O)C1CCCN(CCCOc2ccccc2)C1 (stereo not given)	4	2
CCOC(=O)c1nn(-c2ccccc2)c(=O)c2c(NC(=O)Cc3ccc(Cl)cc3)scc12	1	-3
COC(=O)C1=C(C)OC(=N)C(C#N)C1c1ccccc1F (stereo not given)	-5	-7
COc1ccccc1C1(CC(=O)N2CCN(c3ccccc3)C(=O)C2)CC(=O)N(C2CCCC2)C1=O (stereo not given)	21	6
Cc1cccnc1[C@H](C)NC(=O)c1cn2c(n1)CNCC2	1	0
O=C(CCC1CCCN(Cc2ccc(F)cc2F)C1)N1CCN(Cc2ccccc2)CC1 (stereo not given)	8	3
O=c1[nH]c2ccccc2c2nc(-c3cccc(S(=O)(=O)N4CCCC4)c3)nn12	-1	0
CN(C)c1cc(N/N=C\c2ccc(Cl)cc2Cl)nc(N(C)C)n1	2	-2
COc1ccc(CCNC(=O)c2cc(-c3ccccc3F)nc3cc(C(C)(C)C)nn23)cc1OC	16&-10	26&-6
CC1(C(=O)Nc2ccc(F)cc2F)CCN1C(=O)Cc1ccccc1Cl (stereo not given)	5	3
O=C(c1ccccc1C(F)(F)F)N1CCC(c2nc(-c3ccc(Cl)cc3)no2)CC1	5	1
COc1ccc(S(=O)(=O)Oc2ccccc2CN(C(=O)c2cccs2)C2CC2)cc1	24	27
Cc1nc(NC(=O)CCNC(=O)NCc2ccccc2)sc1C	5	3
CCSc1nnc2c(n1)OC(c1ccc([N+](=O)[O-])o1)Nc1ccccc1-2 (stereo not given)	5	2
Cc1c(C(=O)NCc2ccco2)cnn1-c1cccc(Cl)c1	-2	11
COCC(=O)N(Cc1cc(NC(=O)C2CCC2)ccc1N(C)C)C1CC1	23	26
COc1ccccc1CCNC(=O)c1ccccc1N1CCC(NC(=O)c2ccc(C(F)(F)F)cc2)CC1	1	9
COc1ccc(C(=O)N2CCN(c3ccc4c(c3)CCC4)C(=O)C2C)cc1 (stereo not given)	1	5
Cn1c(=NNC(=O)Cc2coc3cc4c(cc23)CCC4)sc2ccccc21	15	10
CC1CCCN(c2nc3nonc3nc2N2CCCC(C)C2)C1 (stereo not given)	12	12
Cc1cc(CNCc2c(C(=O)N(C)CCc3ccccc3)nc3sccn23)nn1C	6	9
CCc1nc([C@H]2CN(C)C[C@@H]2C(=O)NCc2ccccn2)c(C)[nH]1	6	2
CCOC(=O)CC1CCCCN1Cc1nnc(C2CC2)o1 (stereo not given)	3	2
CC(C)(C)NC(=O)NC1CCN(c2ccccc2C(=O)N2CCN(C3CCCC3)CC2)CC1	2	11
CN1CCN(C(c2ccccc2Cl)C2Sc3nc(-c4ccco4)nn3C2=O)CC1 (stereo not given)	-3	-5
O=C(COc1ccc(F)cc1)N1CCC(n2nc(-c3ccccc3)cc2-c2ccccc2)CC1	1	-1
Cn1cc(CNC(=O)CC2C(=O)NCCN2Cc2cccc(F)c2F)cn1 (stereo not given)	4	0
Cc1ccccc1C(NC(=O)C1CCN(Cc2cccc(C(F)(F)F)c2)CC1)c1ncccc1C (stereo not given)	8	1
COCCN(Cc1cccc(OC)c1)Cc1ccc(C(O)(c2ccccc2)c2ccccc2)o1	-2	5
O=C(NCCn1ncc2c(N3CCOCC3)ncnc21)C1CC(=O)N(c2ccccc2)C1 (stereo not given)	4	1
Cc1ccc(-n2nnc(C(=O)OCc3nc(-c4ccccc4)oc3C)c2C)cc1C	7	-7
COCCCN(CC(=O)N(CCc1ccc(OC)c(OC)c1)Cc1sccc1C)C(=O)COc1ccc(Cl)cc1	4	2
CCOC(=O)N1CCN(C2CCCN(C(=O)c3csc(NC)n3)C2)CC1 (stereo not given)	-3	-4
CCn1ccnc1Cn1ccnc1-c1ccc(N(C)C)nc1	14	7
O=C1C(=Cc2ccc(N3CCCCC3)c([N+](=O)[O-])c2)C(=O)c2ccccc21	-6	-9
O=C1CN(C(=O)C2CCCC2)CC(O)CN1CCOc1ccccc1 (stereo not given)	19	26
CCOC(=O)CCc1c(C)nc2ncnn2c1N1CCN(C(=O)COc2cccc(Cl)c2)CC1	17	14
CN(CC(=O)N1CCSc2ccccc21)c1ccccc1	10	6
NC(=O)c1ccc(NC(=O)C(=O)Nc2cccc(N3CCCS3(=O)=O)c2)cc1	20	16
Cc1csc(=Nc2ccccc2F)n1/N=C\c1ccncc1	8	5
CCOC(=O)CCC(=O)O[C@H]1[C@H](O[C@@H]2[C@@H](C)[C@H](O[C@H]3C[C@@](C)(OC)[C@@H](O)[C@H](C)O3)[C@@H](C)C(=O)O[C@H](CC)[C@@](C)(O)[C@H](O)[C@@H](C)C(=O)[C@H](C)C[C@@]2(C)O)O[C@H](C)C[C@@H]1N(C)C	7&-26	-10&-25
CCc1c(C)nc2c(-c3ccccc3)c(COC)[nH]n2c1=O	-18	-22
O=C(NCC1(O)CCNC1)c1ccccc1Oc1ccccc1 (stereo not given)	5	3
CCOc1ccc(-c2cc(=O)n(CC(=O)OC)cn2)cc1	-18	-22
CSc1ncc(CN(C)CC2CCN(CCc3ccc(F)cc3)CC2)cn1	7	3
COCc1cc(C)nc(N/N=C\c2ccc(C(C)(C)C)cc2)c1C#N	6	-7
COc1ccc(S(=O)(=O)N2CCC(C(NC(=O)c3cccs3)C(=O)N3CCCC3)CC2)cc1 (stereo not given)	6	11

One compound at a time (already shown):
`CCOC(=O)CCC(=O)O[C@H]1[C@H](O[C@@H]2[C@@H](C)[C@H](O[C@H]3C[C@@](C)(OC)[C@@H](O)[C@H](C)O3)[C@@H](C)C(=O)O[C@H](CC)[C@@](C)(O)[C@H](O)[C@@H](C)C(=O)[C@H](C)C[C@@]2(C)O)O[C@H](C)C[C@@H]1N(C)C` is entered as NPYLR7 agonist = 7&-26; NPYLR7 agonist max-min = -10&-25
`O=C(NCC1(O)CCNC1)c1ccccc1Oc1ccccc1` (stereo not given) is entered as NPYLR7 agonist = 5; NPYLR7 agonist max-min = 3

The listing continues:
SMILES	NPYLR7 agonist	NPYLR7 agonist max-min
COc1cccc(Cn2c(=O)c(C(=O)NC3CC3)nn(-c3ccc(C)c(Cl)c3)c2=O)c1	6	10
CN(Cc1ccccc1N1CCOCC1)C(=O)NC1CCCc2occc21 (stereo not given)	4&-2	3&-1
Cc1ccc(S(=O)(=O)N2CCN(C(=S)Nc3ccccc3)CC2)cc1	2	1
CC1C(=O)N(c2ccc(F)cc2)CCN1C(=O)c1ccc(F)cc1 (stereo not given)	-2	2
COc1ccc(C(=O)CSc2nnc(-c3ccc(OC)cc3)n2-c2ccccc2C)cc1	6	8
Cc1ccc(-c2noc([C@@H]3Cc4nc[nH]c4CN3C(=O)c3cccs3)n2)cc1	-11	-18
Cc1cccc(N2CCN(Cc3cn[nH]c3-c3ccc(F)cc3F)CC2)n1	26&1	13&4
O=C(CC1COCCN1)NCc1cc(F)ccc1C(F)(F)F (stereo not given)	-5	-5
O=c1oc2ccc([N+](=O)[O-])cc2cc1-c1nnc(Nc2ccc(Oc3ccccc3)cc2)s1	-5	-9
CCOC(=O)C1C(=O)C=C(c2ccc(F)cc2)CC1c1cc(OC)ccc1OC (stereo not given)	3	6
Cc1ccc(Cc2nc(N3CCN(C(=O)CCc4ccccc4)CC3)c3c(-c4cccnc4)noc3n2)cc1	12	2
CCCCN1C(=O)C(=Cc2cccnc2)NC1=S	6	2
CC(C)c1ccc(NC(=O)C(C2CCCC2)N2CCN(C(=S)Nc3ccc(F)cc3)CC2)cc1 (stereo not given)	11	16
CC(C)=CCn1c2ccc(NC(=O)Nc3ccc(N(C)C)cc3)cc2c(=O)n1C	1	0
COc1ccc(CCN2C3CCC2CC(NC(=O)/C=C/c2ccccc2)C3)cc1OC (stereo not given)	6	7
CCOC(=O)c1sc(N)c(C(=O)OCC)c1CSc1nnc(SCC)s1	-3	2
O=C(O)CC1(CC(=O)N2CCN(C(=O)CC3(CC(=O)O)CCCCC3)CC2)CCCCC1	5	12
C#C[C@]1(O)CC[C@H]2[C@@H]3CCC4=CC(=O)CC[C@@H]4[C@H]3CC[C@@]21C	15&-1	4&-6
CC(C)Nc1ccc(C(=O)NCCc2c[nH]c3ccccc23)cn1	-9	-16
O=C(c1csc2nc(-c3ccccc3F)cn12)N1C[C@H](O)[C@@H](N2CCCC2)C1	14	-5
COc1cccc(-n2cc(CN(C)CC3CCCC3)cn2)c1	6	4
CC(O)Cn1c(SCC(=O)NC2CC2)nc2ccc(Br)cc2c1=O (stereo not given)	0	-1
Cc1ccc2c(c1)NC(=O)c1cc(NS(=O)(=O)c3ccc(C)s3)ccc1O2	-1	-3
CCS(=O)C1CCCC(NCc2ccc(C)o2)C1 (stereo not given)	9	5

Reprinted at random: 3 entries already listed, in no set order.
SMILES	NPYLR7 agonist	NPYLR7 agonist max-min
CCOC(=O)N1CCN(C2CCCN(C(=O)c3csc(NC)n3)C2)CC1 (stereo not given)	-3	-4
CN(CC(=O)N1CCSc2ccccc21)c1ccccc1	10	6
Cc1nc(NC(=O)CCNC(=O)NCc2ccccc2)sc1C	5	3

Following part:
SMILES	NPYLR7 agonist	NPYLR7 agonist max-min
Cc1nn(C(C)C)c(C)c1NC(=O)CSc1ccccc1	4	2
COc1cccc(CN2CCCC3(CCN(C(=O)c4cscn4)C3)C2)c1OC (stereo not given)	3	-2
CCc1cc2c(-c3sc4nc(C)cc(C)c4c3N)cc(=O)oc2cc1O	5	2
Cc1ccc(S(=O)(=O)N2CCCN(C(=O)COc3c(Cl)cccc3Cl)CC2)cc1	-1	-2
c1cc(CN2CCN3CCCC3C2)n(-c2nccs2)c1 (stereo not given)	-5	-9
COC(=O)CCCC(=O)N1CCN(c2nc3nccc(-c4ccc(C5CCCCC5)cc4)n3n2)CC1	12	8
O=S(=O)(NCCNc1cc(-n2cccn2)ncn1)c1cc(F)ccc1F	-6	-12
CCc1nnnn1CC(=O)Nc1c(Br)cc(C)cc1Br	-3	-4
CCOc1ccc(C(=O)Nc2ccc(Cl)c(-c3nc4cc(C)ccc4o3)c2)cc1[N+](=O)[O-]	-6	5
Cc1cc2c(=O)n(C)c(SCC(=O)NC3CCCC3)nc2s1	-1	-2
Cn1c(CN(C2CCCC2)C2CC2)nnc1C1CC1	6	5
CN1CCN(c2nc(CSc3nnc(N)s3)cc(=O)[nH]2)CC1	1	-2
O=C(NCCCC(=O)N1CCC(n2c(=O)[nH]c3ccccc32)CC1)OCc1ccccc1	-7	-11
O=C(c1cc(Br)ccc1O)N1CCN(C(=O)c2ccccc2Cl)CC1	3	1
CC(C)(C)N=C1NN=C(c2c[nH]c3ccccc23)CS1	5	0
CCCc1nn(C)c(C(=O)Nc2ccc(CS(=O)(=O)N3CCCC3)cc2)c1[N+](=O)[O-]	11	15
CCN(CC)S(=O)(=O)c1ccc(OC)c(N2CCN(C(=O)COc3cccc(Cl)c3)CC2)c1	21	18
CCOC(=O)c1ccc2c(c1)n(Cc1ccccc1)c(C)[n+]2CC	8	7
CC1(C(=O)NCCc2c[nH]c3ccccc23)CCN1CC1CCCCC1 (stereo not given)	3	-1
O=C(Nc1ccc(F)cc1Br)c1ccccc1C(F)(F)F	-3	-5
CC1(C)Cc2nc(C(C)(C)C)ncc2C(NCc2ccccn2)C1 (stereo not given)	12	5
COc1cc(-c2cnn3c(C)c(C(=O)NC(C)c4cccc5ccccc45)cnc23)cc(OC)c1OC (stereo not given)	4	-2
Cc1cc(C)cc(Nc2nc(NCC3CCCO3)nc3c2cnn3-c2ccccc2)c1 (stereo not given)	1	-2
CCN(CC)c1ccc(C=C2CCC(C=NNC(=O)c3ccco3)=C2N2CCOCC2)cc1	19	8
NC(=O)c1ccc(OCCC(=O)Nc2ccsc2)cc1	3	1
CN1CCN(C(=O)CCC2CCCN(C3CCN(c4ccccc4)CC3)C2)CC1 (stereo not given)	21	8
O=c1[nH]c(/C(Cl)=C\c2cccnc2)nc2sc3c(c12)CCC3	11	8
O=C1CC(Nc2ccccc2)C(=O)N1c1ccc(N2CCOCC2)cc1 (stereo not given)	-11	-15
COCCN(Cc1ccc(OS(=O)(=O)c2cccc(C(F)(F)F)c2)cc1)C(=O)c1ccccc1Br	6	14
CN(c1ccc(Oc2ccccc2)cc1)S(=O)(=O)c1cc(C(N)=O)n(C)c1	5	5
Cc1ccc(CN2CCNC(=O)C2CC(=O)N2CCC(CN3CCCC3=O)CC2)cc1 (stereo not given)	14	3

Grouped by structure: those above containing a nitro group on carbon (6)
SMILES	NPYLR7 agonist	NPYLR7 agonist max-min
Nc1cccc2c(Oc3ccc([N+](=O)[O-])cc3)cccc12	-1	-2
CCSc1nnc2c(n1)OC(c1ccc([N+](=O)[O-])o1)Nc1ccccc1-2 (stereo not given)	5	2
O=C1C(=Cc2ccc(N3CCCCC3)c([N+](=O)[O-])c2)C(=O)c2ccccc21	-6	-9
O=c1oc2ccc([N+](=O)[O-])cc2cc1-c1nnc(Nc2ccc(Oc3ccccc3)cc2)s1	-5	-9
CCOc1ccc(C(=O)Nc2ccc(Cl)c(-c3nc4cc(C)ccc4o3)c2)cc1[N+](=O)[O-]	-6	5
CCCc1nn(C)c(C(=O)Nc2ccc(CS(=O)(=O)N3CCCC3)cc2)c1[N+](=O)[O-]	11	15

This is a subset (hit frequency here may not be typical).
